GIV-Gai inh – inhibitors of GIV GBA-motif binding to rat Galpha-i3; P08753; Galpha-i3/FITC-GIV peptide fluorescence polarization, 90 min; stronger effect = lower value; scaled: aluminum fluoride 0%, vehicle 100%; percent of control (FP), % (test concentration not listed); 0.42% of 210,000 active; AID 1224905;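 active = replicate mean at 85% of control or lower, very high polarization wells dropped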;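 note: wells of about 15 µL received 100 nL stock; the first replicate is given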
Target sequence (P08753 whole entry, looked up): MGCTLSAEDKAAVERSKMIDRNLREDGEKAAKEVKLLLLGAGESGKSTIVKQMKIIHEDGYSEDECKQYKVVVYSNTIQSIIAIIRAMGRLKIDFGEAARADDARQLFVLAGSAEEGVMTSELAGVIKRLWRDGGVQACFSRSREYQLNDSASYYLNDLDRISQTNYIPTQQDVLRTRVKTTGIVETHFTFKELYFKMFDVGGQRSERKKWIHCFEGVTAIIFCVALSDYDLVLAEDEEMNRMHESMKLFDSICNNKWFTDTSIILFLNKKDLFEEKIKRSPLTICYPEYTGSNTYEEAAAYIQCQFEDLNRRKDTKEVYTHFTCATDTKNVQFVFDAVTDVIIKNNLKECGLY
HCMV NEC inh – disrupts HCMV UL50-UL53 complex binding; HTRF UL50-UL53 interaction, normalized percent inhibition; inhibition, % (test concentration not listed); 0.15% of 190,000 active;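 active = both replicates at 50% or more, plus weaker picks with an unusually low signal ratio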;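 note: stock transfer was 100 nL into about 20 µL; 0% = negative control wells and 100% = wells with untagged competitor protein; inactives centre near -12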
Sa growth inh – blocks Staphylococcus aureus growth. S. aureus RN4220 growth, OD600, 20 h, 42 °C; stronger effect = lower value. relative growth, % (concentration not given with the values). 0.53% of 170,000 active. AID 720641;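 active = growth at 42 °C up to 50% and 20 or more points under that at 30 °C, or under 10% at both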;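 note: 300 nL library stock went into each well; scaled to the means of positive and negative controls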
Sa growth inh second temp – further read-out of Sa growth inh, marked with its call; relative growth, %; measured here: growth at 30 °C;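 optical density after 20 h as mean of two plates; 100% = untreated growth and lower means inhibition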
Active calls of the source: *; x = no result given; & = joins results of further samples.

The opening 2 records, ahead of the listing:
SMILES	GIV-Gai inh	HCMV NEC inh	Sa growth inh	Sa growth inh second temp
COC(=O)CNC(=O)c1ccc(C)c(C)c1	x	-27	82	93
COc1cccc(/C=C2/CC(C(C)(C)C)C/C(=C\c3cccc(OC)c3OC)C2=O)c1OC (stereo not drawn)	101	x	117	91

Main list, from the start:
SMILES	GIV-Gai inh	HCMV NEC inh	Sa growth inh	Sa growth inh second temp
COC(=O)CNC(=O)c1ccc(C)c(C)c1	x	-27	82	93
COc1cccc(/C=C2/CC(C(C)(C)C)C/C(=C\c3cccc(OC)c3OC)C2=O)c1OC (stereo not drawn)	101	x	117	91
CCC(C(=O)Nc1cccc(OC)c1)N1C(=O)CCn2nccc21 (stereo not drawn)	107	-9	92	91
CC1CCc2onc(C(=O)NC3=NN(c4ccccc4)CC3)c2C1 (stereo not drawn)	102	-36	85	89
COc1cc(C(=O)Oc2c(Sc3ccc(C)cc3)c(C)nn2-c2ccccc2)cc(OC)c1OC	112	0	70	76
CCN(CC)CCNC(=O)C1CCN(c2nn3cc(-c4ccc(F)cc4)nc3s2)CC1	100	x	92	86
CCCNC(=O)c1cnc(N2CCN(CC)CC2)nc1C	103	-18	x	x
COc1ccc(-c2noc(CC(=O)N(C)c3ccc(F)cc3)n2)cc1	102	-15	99	95
Cc1noc(C)c1C(=O)O/N=C(\N)Cc1ccc(-c2csnn2)cc1	108	-16	104	98
FC(F)(F)c1ccc(-n2nnnc2-c2ccno2)cc1	98	4	103	100
Cc1n[nH]c(=O)nc1NCCCN(C)C	104	-10	96	85
COc1cc2nc(SCC(=O)Nc3c(C)cc(C)cc3C)n3nc(CCn4c(C)nc5ccccc54)nc3c2cc1OC	97	-10	96	77

(cont.)
SMILES	GIV-Gai inh	HCMV NEC inh	Sa growth inh	Sa growth inh second temp
COc1ccc(C(=O)N(Cc2ccccc2)c2ccccn2)cc1	101	-14	96	81
N#CCCN(Cc1cccnc1)C(=S)NC1CCCCC1	x	-18	102	89
CCN(CC(=O)NCc1cccs1)C(=O)c1cccc(S(=O)(=O)N(CC)CC)c1	x	-29	87	95
Cc1ccc2cc3cc(C(=O)NCCC4=CCCCC4)oc3nc2c1	96	x	105	95
NS(=O)(=O)c1cc(C(=O)O)cs1	x	-22	91	94
COC(=O)c1ccc(NC(=O)c2cc3cc(C)ccc3n2C)cc1	99	-20	109	87
Cc1ccc(C(=O)c2oc3ccccc3c2NC(=O)Cc2coc3cc(C)ccc23)cc1	101	-10	98	88
Cc1nc(CSc2nc3scc(-c4ccco4)c3c(=O)n2-c2ccccc2)cs1	100	17	109	100
C=CCn1c(SCC(=O)c2ccccc2)nnc1-c1ccc2c(c1)OCO2	99	-18	84	55
Clc1cccc(C2C=C(c3ccccc3Cl)Nc3ncnn32)c1 (stereo not drawn)	98	-3	125	88
C=CCNc1nc(C(=O)OCC(=O)N(C2CCCCC2)C2CCS(=O)(=O)C2)cs1 (stereo not drawn)	x	-3	95	92
Cc1nn(-c2cc(N3CCCC3)ncn2)c(C)c1CCC(=O)NCc1ccccc1Cl	103	-26	x	x

Taken from the entries so far, 18 compounds:
SMILES	GIV-Gai inh	HCMV NEC inh	Sa growth inh	Sa growth inh second temp
CCCNC(=O)c1cnc(N2CCN(CC)CC2)nc1C	103	-18	x	x
COc1ccc(-c2noc(CC(=O)N(C)c3ccc(F)cc3)n2)cc1	102	-15	99	95
Cc1noc(C)c1C(=O)O/N=C(\N)Cc1ccc(-c2csnn2)cc1	108	-16	104	98
FC(F)(F)c1ccc(-n2nnnc2-c2ccno2)cc1	98	4	103	100
Cc1n[nH]c(=O)nc1NCCCN(C)C	104	-10	96	85
COc1cc2nc(SCC(=O)Nc3c(C)cc(C)cc3C)n3nc(CCn4c(C)nc5ccccc54)nc3c2cc1OC	97	-10	96	77
COc1ccc(C(=O)N(Cc2ccccc2)c2ccccn2)cc1	101	-14	96	81
N#CCCN(Cc1cccnc1)C(=S)NC1CCCCC1	x	-18	102	89
CCN(CC(=O)NCc1cccs1)C(=O)c1cccc(S(=O)(=O)N(CC)CC)c1	x	-29	87	95
Cc1ccc2cc3cc(C(=O)NCCC4=CCCCC4)oc3nc2c1	96	x	105	95
NS(=O)(=O)c1cc(C(=O)O)cs1	x	-22	91	94
COC(=O)c1ccc(NC(=O)c2cc3cc(C)ccc3n2C)cc1	99	-20	109	87
Cc1ccc(C(=O)c2oc3ccccc3c2NC(=O)Cc2coc3cc(C)ccc23)cc1	101	-10	98	88
Cc1nc(CSc2nc3scc(-c4ccco4)c3c(=O)n2-c2ccccc2)cs1	100	17	109	100
C=CCn1c(SCC(=O)c2ccccc2)nnc1-c1ccc2c(c1)OCO2	99	-18	84	55
Clc1cccc(C2C=C(c3ccccc3Cl)Nc3ncnn32)c1 (stereo not drawn)	98	-3	125	88
C=CCNc1nc(C(=O)OCC(=O)N(C2CCCCC2)C2CCS(=O)(=O)C2)cs1 (stereo not drawn)	x	-3	95	92
Cc1nn(-c2cc(N3CCCC3)ncn2)c(C)c1CCC(=O)NCc1ccccc1Cl	103	-26	x	x

The list goes on:
SMILES	GIV-Gai inh	HCMV NEC inh	Sa growth inh	Sa growth inh second temp
CC(=O)Nc1ccc(-c2cn(CC(N)=O)cn2)cc1	102	3	99	89
C=CCOc1cccc(CNn2nnnc2N)c1	104	8	95	78
CC(O)(CNCc1ccc(Cl)cc1)CSc1ccc(Cl)cc1 (stereo not drawn)	108	3	99	53
CC(=O)NCc1ccc(C(=O)CSc2nnc(-c3ccccc3)o2)cc1	x	-8	85	82
Cc1nc(N)nc(CSc2ccc(Cl)cc2)n1	97	7	98	104
Cc1cc(C)n2nc(CN(Cc3ccccc3)S(=O)(=O)c3ccccc3)nc2n1	104	-16	x	x
NS(=O)(=O)c1ccc(NC(=O)COc2ccccc2)cc1	95	-13	87	84
Cc1ncc(-c2cc3c(ccc4ccccc43)oc2=O)s1	x	-4	82	89
O=C(c1nn2c(C(F)(F)F)cc(-c3ccccc3)nc2c1Br)N1CCOCC1	101	-33	x	x
Cc1cc(C)cc(NC(=O)c2sc3nc(-c4cc5ccccc5oc4=O)[nH]c(=O)c3c2C)c1	98	-7	99	94
CC(C)(C)C(=O)Nc1ccncc1C(=O)O	102	-8	86	90
Cc1cc(-c2nc(-c3ccccc3C)no2)n[nH]1	107	-18	x	x

Carrying on.
SMILES	GIV-Gai inh	HCMV NEC inh	Sa growth inh	Sa growth inh second temp
COc1ccc(-n2c(/C=C/c3c(C)n(C)c4ccc(OC)cc34)nc3ccccc3c2=O)cc1	106	-5	x	x
COc1cccc(CSc2nc3n(n2)C(c2ccccc2C)C(C(=O)Nc2ccccc2OC)=C(C)N3)c1 (stereo not drawn)	101	x	121	91
Nc1ccc(Br)cc1-c1nc2ccccc2[nH]c1=O	103	x	103	72
O=C(NC1CCN(Cc2ccccc2)CC1)c1ccc2c(c1)CCO2	99	-11	100	89
CCC1CCCCN1S(=O)(=O)Cc1ccccc1Cl (stereo not drawn)	106	-26	98	102
O=C(NCc1cccc(Cl)c1)C1CCn2c(nc3ccccc32)C1 (stereo not drawn)	112	-19	x	x
O=C(NC1CCCCC1)C(Cc1c[nH]c2ccccc12)NC(=O)C(c1ccccc1)c1ccccc1 (stereo not drawn)	x	0	106	102
CCOC(=O)C1=C(N)OC2=C(C(=O)CC(c3ccccc3)C2)C1c1ccc([N+](=O)[O-])cc1 (stereo not drawn)	108	14	x	x
COc1cc(NC(=S)N2CCCCC2CO)cc(OC)c1 (stereo not drawn)	99	-10	100	101
Cn1ccnc1SCc1nc(-c2ccccc2)no1	x	18	108	99
COc1ccc2cc3cc(C(=O)NCc4ccco4)oc3nc2c1	102	x	123	62
C/C(N)=C(/C#N)C(=O)CSc1nc2ccccc2c(=O)n1-c1ccc(C)cc1	x	-27	92	98

Other records follow.
SMILES	GIV-Gai inh	HCMV NEC inh	Sa growth inh	Sa growth inh second temp
CN(C)c1ccc(C(CNC(=O)c2cccc(C(F)(F)F)c2)N2CCCC2)cc1 (stereo not drawn)	100	x	91	76
CCNC(=O)CSc1nc2ccccc2[nH]1	x	-11	95	90
Cc1cc(C)c2nc(N3CCCC(C(=O)NCCc4ccc(S(N)(=O)=O)cc4)C3)sc2c1 (stereo not drawn)	98	-32	x	x
C#CCn1c(=NC(=O)C2CC2)sc2ccccc21	104	-18	110	96
N/C(=N\O)c1cccc(NC(=O)C2CC2)c1	x	-1	101	98
COc1cc(NC(=O)c2cnc(N3CCCC3)nc2)cc(OC)c1OC	110	-4	111	93
CN(C/C(O)=C(\C#N)c1ccccc1)C1CCCCC1	x	-8	95	91
COc1ccc(NC(=O)c2ccc(C3SCC(=O)N3Cc3ccco3)cc2)cc1 (stereo not drawn)	103	-2	90	74
COc1cc(OC)cc(-c2nnc(NC(=O)c3ccc(S(=O)(=O)N(C)c4ccccc4)cc3)o2)c1	101	6	-0.1*	0.1*
COc1ccc(-c2noc(-c3nnn(-c4ccc(C)cc4C)c3C)n2)cc1	105	x	93	103
Cc1ccccc1OCC(=O)N1CCc2ccccc2C1	100	-10	107	102
CCN(C(=O)Cn1nc(Cc2cccnc2)c2ccccc2c1=O)c1ccccc1F	104	-26	116	84

(continued)
SMILES	GIV-Gai inh	HCMV NEC inh	Sa growth inh	Sa growth inh second temp
O=C1CC(c2c(Cl)cccc2Cl)c2c(ccc3ccccc23)N1 (stereo not drawn)	104	-4	108	92
N#Cc1c(-c2ccccc2)cc(-c2ccccc2)nc1SCC(O)CS(=O)Cc1ccccc1 (stereo not drawn)	100	x	92	80
Cc1nnc(Nc2ccccc2)c2c1nnn2Cc1ccccc1Cl	102	-13	82	80
Cc1nn(-c2ccccc2)c2nc3oc(C(=O)c4ccc(Br)cc4)c(N)c3c(-c3cccnc3)c12	146	-33	93	88
CC1CCN(c2nc3nonc3nc2Nc2ccc3c(c2)OCO3)CC1	x	-28	96	73
CCOC(=O)c1cc(OCC(=O)NC(C)C(C)C)cc(C(=O)OCC)c1 (stereo not drawn)	x	-20	73	91
Cc1ccc(NC(=O)N2CCC(n3nnc(-c4cccs4)n3)CC2)cc1	106	-3	98	94
COc1cc(Cl)c(C)cc1NC(=O)CCc1nc2ccccc2[nH]1	102	2	100	80
CC1CCC(NC(=O)c2ccc(CSc3nc4ccncc4n3Cc3ccc(F)cc3)cc2)CC1 (stereo not drawn)	110	-15	104	95
COCc1c(C(=O)Nc2cc(C(F)(F)F)ccc2-n2cncn2)oc2ccccc12	x	-8	106	90
Cn1c(SCc2ccccc2)nc(N)cc1=O	109	-8	105	97
OCC1O[C@H](O)C(Cl)C(O)C1O (stereo partly drawn)	105	-23	x	x

Carrying on.
SMILES	GIV-Gai inh	HCMV NEC inh	Sa growth inh	Sa growth inh second temp
CC1CCC(NC(=O)CCC2=NS(=O)(=O)c3ccccc3N2)CC1 (stereo not drawn)	103	-28	90	83
COc1ccc(NC(=O)c2cc(C)no2)cc1	97&100	1&-20	97	89
COc1ccc(Cc2nnc3n2N=C(c2ccc(CNC(C)=O)o2)CS3)cc1	x	-60	88	88
CC(C(=O)Nc1sc2c(c1C#N)CCCCC2)N1C(=O)c2ccccc2C1=O (stereo not drawn)	106	-10	97	90
Cc1ccc(Cn2cccc2CNS(=O)(=O)c2cnn(C(F)F)c2C)cc1	106	-16	x	x
Nc1[nH]c(=O)[nH]c(=O)c1N=Nc1ccc(SC(F)F)cc1	106	-45	85	94
Clc1ccccc1-c1nnc(-c2ccccc2CN2CCN(c3ccccc3)CC2)o1	106	-17	100	89
O=C(NC(=O)C1CCCCC1)c1ccccc1O	106	40	113	92
Cc1ccc(CCNC(=O)c2ccc(NC(=O)N3CCSc4ccccc43)cc2)cc1	104&103	-22&18	102	94
N#Cc1ccccc1Sc1ccccc1C(=O)NCC(c1ccco1)N1CCCC1 (stereo not drawn)	x	-18	74	86
O=C(CSc1cn(CC(=O)N2CCCC2)c2ccccc12)Nc1cc(C(F)(F)F)ccc1Cl	107	x	96	97
O=C(Nc1cc(=O)[nH][nH]1)c1cc(-c2ccc(F)cc2)nc2ccccc12	x	-29	109	80
CCN(CC)c1nc(NC)nc(-n2cnc(SC)n2)n1	100	-14	x	x
CC(=C/C(=O)O)/C=C/c1cccs1	102	-12	94	56
Cc1noc(C(=O)Nc2cccc(Cl)c2)c1Cl	102	-36	x	x

Random draw from the library (roughly 0.8% active in at least one column).
